Screening data deposited in PubChem by Center for Chemical Genomics, University of Michigan.
HIV TAR-Tat – HIV-1 TAR-Tat binding disruption | HIV-1 TAR RNA, Tat peptide displacement FRET; active compounds read high | 100,000 compounds, 0.6% hits | z-score (concentration not given with the values);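 also: score is relative to mean and SD of negative controls; some compounds called inactive have numbers as strong as hits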
CDC25B-CDK2 inh – human CDC25B-CDK2/CyclinA binding inhibition. z-score (concentration not given with the values). 94,000 compounds, 0.72% hits. HTRF CDC25B-CDK2/CyclinA binding, anti-His/anti-Flag; active compounds read high. P30305+P24941;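 also: score is relative to mean and SD of negative controls; strong numbers were not always called active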
* = called active by the depositor; . = no result given.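 The calls were made as follows: active = z-score from 3 up in half or more of its runs; inactive = the rest.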 Rows were taken by chance; overall some 0.89% were active at least once.

Values run as follows: HIV TAR-Tat, CDC25B-CDK2 inh
Cc1ccc(Cl)c2c1NC(=O)C2(O)CC(=O)c1ccccc1O (stereo not drawn)
→ 0.61, -0.32
CN(CCNC(=O)C(=O)Nc1ccc2nc3n(c(=O)c2c1)CCCCC3)C1CCCCC1
→ 1.4, -0.38
O=C(Oc1ccc(-c2csnn2)cc1)c1ccc([N+](=O)[O-])o1
→ ., -2.1
O=C(OCc1ccccc1)c1sc2ccccc2c1Cl
→ 0.91, -0.83
C/C=C(\C)C(=O)N/N=C/c1cccnc1
→ ., 0.36
Cc1ccccc1OCc1nn2c(C)nnc2s1
→ -0.06, -0.51
CCC(C(=O)NCCCOC(C)C)N1C(=O)CCn2nc(C)cc21 (stereo not drawn)
→ 0.21, .
CCOCCCNC(=O)Cn1nc(CC)n2c(cc3sccc32)c1=O
→ 0.72, -0.86
CCOc1ccc(OCc2ccc(C(=O)NC(C)(C)C)o2)cc1
→ 0.48, -2.3
Cc1ccnc(NC(=O)CSc2nnc3c4ccccc4n(C)c3n2)c1
→ -1.8, -4.2
CCc1nn(Cc2nc(-c3ccccc3)oc2C)c(=O)c2cc3cc(C)ccc3n12
→ 0.93, 1.9
COC(=O)CSc1nn2c(=O)c(C)nnc2s1
→ 1.1, .
CC1=C(C(=O)OC(C)(C)C)C(c2ccccc2F)NC(=O)N1 (stereo not drawn)
→ ., 1
C=CCOc1ccc(-c2nn(-c3ccccc3)cc2C2NC(=O)NC(C)=C2C(=O)OCC)cc1C (stereo not drawn)
→ ., 0.87
Cc1ccc(C(=O)c2cnc3cc4c(cc3c2S(=O)(=O)c2ccccc2)OCCO4)cc1
→ -1.1, 0.93
CCOc1ccc(CNCCSc2nnnn2C)cc1
→ -0.91, -1
O=C(c1ccc(Br)o1)N1CCN=C1SCc1cccnc1
→ ., -1.9
COc1ccc(N2C(=O)CCS2(=O)=O)cc1S(=O)(=O)N1CCN(c2ccc(F)cc2)CC1
→ 0.52, -1.5
CCN(CC)c1nc2n(c(=O)n1)CCO2
→ ., -1.6
CN(C(=O)c1c2c(nc3ccccc13)C(=O)N(C1CCCCC1)C2)c1ccccc1
→ 0.05, .
Cc1nc2ncccc2c(=O)n1-c1ccc(NC(=O)CC(C)(C)C)cc1
→ 0.16, .
CCOC(=O)c1noc2ncnc(N(C)c3cc(C)ccc3C)c12
→ -0.9, .
CC(C)CC(C)c1cc(N)nc2nc3ccccc3n12 (stereo not drawn)
→ ., -1
Cc1c(C(=O)N(C)c2ccccc2F)sc2nc3n(c(=O)c12)CCCC3
→ -0.5, .
O=C(NCC(c1cccs1)N1CCCC1)c1cc(-c2ccc3c(c2)OCCO3)on1 (stereo not drawn)
→ 0.21, -0.79
Cn1c(=O)n(C)c2cc(S(=O)(=O)NCc3ccco3)ccc21
→ -0.8, -1.1
CC(C)(C)C(=O)OCC(=O)c1ccc(C(F)(F)F)cc1
→ ., -0.52
COC(=O)C1Cc2c([nH]c3ccccc23)C(c2ccccc2)N1 (stereo not drawn)
→ ., -1
Cc1c(C(=O)N2CCC(N3CCCCC3)CC2)sc2nc3n(c(=O)c12)CCCCC3
→ 0.99, .
CCCc1nnc(NC(=O)Cc2coc3cc(C)ccc23)s1
→ 1.2, -1.3
C=CCn1c(C2CC(=O)N(c3ccccc3OCC)C2)nc2ccccc21 (stereo not drawn)
→ 1.6, 0.2
CN(Cc1ccccc1)c1ncnc2sc3c(c12)CCCC3
→ ., -1.1
Cn1nnc2c(N3CCOCC3)ncnc21
→ 0.76, .
O=C(Cn1cnc2c(oc3ccccc32)c1=O)Nc1ccc2c(c1)OCO2
→ ., 0.03
Cc1cccc(NS(=O)(=O)c2c(C)nc3scc(C)n3c2=O)c1
→ -0.42, -0.85
CN(C)c1c(F)cc(-c2nn[nH]n2)cc1F
→ ., -1.8
CCCn1c(=O)oc2cc(NS(=O)(=O)c3ccc(N4CCCC4=O)cc3)ccc21
→ 1.3, .
CCCN(C(=O)[C@H]1[C@@H]2C[C@@H]3[C@H]1C(=O)O[C@@H]3C2)c1c(C)cc(C)cc1C
→ 1.4, -1.7
O=c1ccc(-c2ccccc2)nn1Cc1nnc(SCc2ccc(F)cc2)o1
→ 1, .
COC(=O)c1sccc1NC(C)=O
→ 0.85, 6
O=C(OCc1ccco1)c1ccc2c(c1)N(Cc1ccccc1)C(=O)c1ccccc1S2
→ 1.2, .
Cc1cc(C)c(NS(=O)(=O)c2cc(-c3cnc(C4CC4)o3)ccc2C)c(C)c1
→ 2.1, .
N#CC1=C(N)Oc2cc(N)ccc2C1c1cccnc1 (stereo not drawn)
→ 2.4, -2
C=CCn1c(SCC(=O)NC(=O)Nc2ccccc2)nnc1-c1ccc(Cl)cc1
→ ., -1.1
Cc1nn(-c2ccccc2)c2sc(-c3n[nH]c(=S)o3)cc12
→ 0.4, 0.43
CCOC(=O)CNC(=O)c1cnc(N2CCN(C)CC2)nc1C
→ 1.4, .
CCCCCn1c(CN2CC(C)CC(C)C2)nc2c1c(=O)n(C)c(=O)n2C (stereo not drawn)
→ 0.36, -0.14
CCN1C(=O)N(c2ccc(C)c(Cl)c2)C2CS(=O)(=O)CC21 (stereo not drawn)
→ 0.23, .
COc1ccc(C2N(c3ccc(OC)cc3)C(=O)C3CCCN32)cc1 (stereo not drawn)
→ 4.6, -0.27
COCc1cc(=O)[nH]c(SCC(=O)c2cc3ccccc3o2)n1
→ ., -0.51

Next records.
Values run as follows: HIV TAR-Tat, CDC25B-CDK2 inh
O=C(NCc1nnc(SCC(=O)N2CCc3ccccc32)n1-c1ccccc1)c1ccco1
→ 1.2, -1.6
Cc1nc(-c2cccs2)no1
→ ., -3.3
CCCN1C=NS(=O)(=O)c2cc(C(=O)N3CCCC3)ccc21
→ 2.5, .
Cc1c(NC(=O)c2ncn[nH]2)c(=O)n(-c2ccccc2)n1C
→ 2.1, -1.3
CCN(CC)c1nc(Nc2ccc(C)c(C)c2)c2cnn(C)c2n1
→ 1.7, .
C=CCOC(=O)c1sc(N2C(=O)c3oc4ccc(F)cc4c(=O)c3C2c2cccc(O)c2)nc1C (stereo not drawn)
→ -0.41, 0.62
CCOC(=O)c1n[nH]c([N+](=O)[O-])c1Cl
→ 2.8, .
O=C(O)Cn1cc(Cl)c([N+](=O)[O-])n1
→ 0.22, -0.91
COc1ccc(C(Nc2ccccn2)c2ccc3ccc(C)nc3c2O)cc1 (stereo not drawn)
→ 0.01, 0.71
O=C(Cn1cnc([N+](=O)[O-])n1)Nc1c(F)cc(F)cc1Br
→ 1.2, -1.4
CC1=NO[C@]2(O)C[C@@H]3[C@H]([C@H]12)C3(C)C
→ ., -2.1
CC(=O)c1c(C)[nH]c(C(=O)Nc2cccc(C)n2)c1C
→ ., -1.2
O=C(C1CCCN(c2nnc(-n3cccc3)s2)C1)N1CCN(Cc2ccc3c(c2)OCO3)CC1 (stereo not drawn)
→ 1.7, .
CCCNC(=O)CN1c2ccccc2NC2=C(C(=O)CC(C)(C)C2)C1c1cccs1 (stereo not drawn)
→ 0.3, .
O=C(C1=CCN(S(=O)(=O)c2ccc(F)cc2)CC1)N1CCc2ccccc21
→ 1.3, -1.5
CCCc1ccc(-c2ccc(C(=O)Oc3ccc(C)nc3)cc2)nc1
→ 0.44, 0.07
CN(CC(O)Cn1c2ccccc2c2ccccc21)S(=O)(=O)c1ccc(Br)cc1 (stereo not drawn)
→ ., 1.5
O=c1c(-c2ccc(Cl)cc2)c(N2CCN(C3CCCC3)CC2)c1=O
→ -0.02, .
Cc1nc2scc(C)n2c(=O)c1S(=O)(=O)N1CCN(C(=O)c2ccco2)CC1
→ 1.1, 0.34
CCN(C(=O)CN1C=NS(=O)(=O)c2ccccc21)c1ccccc1
→ 0.92, .

Four compounds out of the list, ordered by SMILES length, lowest first.
Values run as follows: HIV TAR-Tat, CDC25B-CDK2 inh
CC(=O)c1c(C)[nH]c(C(=O)Nc2cccc(C)n2)c1C
→ ., -1.2
CC1=NO[C@]2(O)C[C@@H]3[C@H]([C@H]12)C3(C)C
→ ., -2.1
O=C(C1=CCN(S(=O)(=O)c2ccc(F)cc2)CC1)N1CCc2ccccc21
→ 1.3, -1.5
CN(CC(O)Cn1c2ccccc2c2ccccc21)S(=O)(=O)c1ccc(Br)cc1 (stereo not drawn)
→ ., 1.5

Additional records
Values run as follows: HIV TAR-Tat, CDC25B-CDK2 inh
Cc1ncc(CSCC(=O)Nc2cc(C(F)(F)F)ccc2Cl)c(CO)c1O
→ ., -1.8
COc1cc(CN2CCN(Cc3ccc4c(c3)OCO4)CC2)cc2c1OCO2
→ ., 0.03
O=C(Nc1ccc(O)c(-c2nc3ccccc3s2)c1)c1cc2ccccc2o1
→ ., -1.9
CSc1nc(-c2ccccc2)nc(Sc2ccccn2)c1C#N
→ ., -2
Cc1ccc(CNc2ncccc2-c2nc(-c3cccc(C)c3)no2)cc1
→ 2.1, -1.8
Cc1ccc2c(c1)NC(SCC(=O)N1CCCCC1C)=NS2(=O)=O (stereo not drawn)
→ 2.1, .
COc1ccc(NC(=S)NNC(=O)c2ccc(-n3c(C)ccc3C)cc2)cc1
→ ., -0.26
CCc1ccc(C2Nc3ccc(C(=O)O)cc3C3C=CCC32)cc1 (stereo not drawn)
→ ., 0.26
Cc1noc2ncnc(N3CCOCC3)c12
→ 0.41, .
O=C(CSCc1nc2cccnc2n1C1CCCCC1)NCc1ccc2c(c1)OCO2
→ -3.8, .
Clc1ccc(-c2csc(N3CCSCC3)n2)cc1
→ 0.71, -2.8
Brc1ccc(CSc2ncnc3nc[nH]c23)cc1
→ -0.43, -0.05
O=C(Cc1ccccc1)N1CCOCC1
→ ., -1.3
CN(NC(=O)c1cccs1)c1cnn(C)c(=O)c1Cl
→ ., -1.7
CC(=O)N1CCc2cc(Br)cc(S(=O)(=O)CCC(=O)NCCC(C)C)c21
→ ., 1.2
c1ccc(N2CCN(Cc3noc4ccccc34)CC2)cc1
→ 1, .
Cn1c(-c2ccccc2)cnc1NCc1cccc(Br)c1
→ -0.85, 0.78
O=C1CC(Nc2ccccc2)C(=O)N1c1ccc(Br)cc1 (stereo not drawn)
→ 0.01, -0.62
CC(=O)N1CCc2c([nH]c3ccccc23)C1C(F)(F)F (stereo not drawn)
→ ., -0.71
Cc1nc2ccccc2n1C(C)c1ccccc1 (stereo not drawn)
→ 1.9, -1.3

Retrieved by compound from the entries so far, 4 records:
Values run as follows: HIV TAR-Tat, CDC25B-CDK2 inh
CCN(C(=O)CN1C=NS(=O)(=O)c2ccccc21)c1ccccc1
→ 0.92, .
CN(CCNC(=O)C(=O)Nc1ccc2nc3n(c(=O)c2c1)CCCCC3)C1CCCCC1
→ 1.4, -0.38
Cc1ccc2c(c1)NC(SCC(=O)N1CCCCC1C)=NS2(=O)=O (stereo not drawn)
→ 2.1, .
O=C(O)Cn1cc(Cl)c([N+](=O)[O-])n1
→ 0.22, -0.91

Going on with the list.
Values run as follows: HIV TAR-Tat, CDC25B-CDK2 inh
O=S(=O)(c1ccccc1)c1nnn2c1nc(Nc1ccccc1)c1ccccc12
→ -0.92, -1.2
COc1cc(OC)cc(C(=O)Nc2c(C)nc3ccc(Cl)cn3c2=O)c1
→ 1, .
CC1(C)CC(=O)C2=C(C1)OC(N)=C(C#N)C2c1ccc(Br)s1 (stereo not drawn)
→ ., -0.95
CN(CC(=O)NCCCN1CCOCC1)c1nnc(N2CCCC2=O)s1
→ 0.65, -1.4
Cc1nc(Oc2cccnc2)c2c3c(sc2n1)CCCC3
→ 0.98, .
CCOc1ccc2c(c1)c(=O)c(S(=O)(=O)c1ccc(Cl)cc1)cn2C
→ 4.1, -0.76
O=c1c2cccnc2[nH]c(=S)n1CCCN1CCCC1
→ ., -0.06
COc1c(N)c2ccccc2[nH]c1=O
→ 1.5, .
COc1cc2c(cc1O)CC[C@@H]1[C@@H]2CC[C@]2(C)[C@@H](O)CC[C@@H]12
→ ., -0.95
O=C(Nc1onc2c1CCCC2)c1cccs1
→ 1.7, -0.96
COc1ccc2nc(-n3nc(C)c4c3NC(=O)CC4c3c(C)sc4ccccc34)sc2c1 (stereo not drawn)
→ 0.55, .
CCOc1ccc(S(=O)(=O)N2CCOCC2)cc1-c1nc2c(C(C)(C)C)nn(C)c2c(=O)[nH]1
→ ., -1.1
CCN(CC)C(=O)CN(C)S(=O)(=O)c1cccc2nsnc12
→ ., -1
O=C(CSc1ccccc1)N1CCN(c2nc3cc(Br)ccc3n3cccc23)CC1
→ -0.9, -1.7
OC(Cn1ccc2ccccc21)Cn1c(Cc2ccccc2)nc2ccccc21 (stereo not drawn)
→ 0.65, -0.88
COC(=O)c1ccc([C@@H]2Nc3ccccc3[C@@H]3C=CC[C@@H]32)cc1
→ -0.86, -0.07
COc1ccccc1-c1nnc2n1N=C(c1ccc(C)c(C)c1)CS2
→ 0.69, .
O=S1(=O)N=C(Nc2ccc(Cl)c(C(F)(F)F)c2)c2ccccc21
→ ., -6.7
CCOC(=O)c1c(C)c(C#N)c(NC(=O)c2ccccc2)n1-c1ccccc1
→ ., 0.55
COc1ccc(C(=O)Nc2cnc3sc4cc(Cl)ccc4n3c2=O)cc1OC
→ -0.72, 5
O=C(Nc1nnc(-c2ccc3c(c2)OCO3)s1)c1ccccc1Cl
→ 2.6, -0.42
C=CCCCC(=O)Nc1ccc(-c2ccc(NC(=O)CCCC=C)cc2)cc1
→ ., -1.9
Cc1ccc(NC(=O)CSCc2cc(=O)n3cc(C)sc3n2)c(C)c1
→ -0.08, .
CCCNC(=O)c1cc([N+](=O)[O-])cc2c1-c1ccc([N+](=O)[O-])cc1C2=O
→ ., 16*
O=C(CCSc1nc(-c2ccc3c(c2)OCO3)cc(C(F)(F)F)n1)N1CCSCC1
→ 0.36, -0.75
Fc1ccc(CSc2cc(-c3ccccc3)ncn2)cc1
→ -0.19, -0.41
